# Six1-Eya2 blk: Six1/Eya2 interaction inhibition; Q15475+O00167; AlphaScreen GST-Six1/His-Eya2 binding, biochemical; stronger effect = lower value; control for the full effect not named in the record; activity change, % (test concentration not listed); 360,000 compounds, 0.56% hits; AID 651725; in the data active = activity change below about -65%; inconclusive = about -30% to -65%; inactive = above about -30%; further: on the % scale 0 is the no-effect control and ±100 the full control effect
#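 GST-Six1 + His-Eya2 (5X stock: 250/500 nM); Tris pH 8.0, 300 mM NaCl, 0.05% BSA, 0.02% Tween 20; GSH donor/Ni acceptor beads; 1 h 37 °C dark; AlphaScreen readout.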
# CtBP-E1A blk: inhibitors of CtBP/E1A interaction; AlphaScreen GST-E1A/His-CtBP binding, 1536-well; stronger effect = lower value; control for the full effect not named in the record; activity change, % (concentration not given with the values); 340,000 compounds, 0.49% hits; in the data active means activity change below about -65%; inconclusive means about -30% to -65%; inactive means above about -30%; further: on the % scale 0 is the no-effect control and ±100 the full control effect
#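 GST-E1A and His-tagged CtBP (125 nM each as 5X stock) were preincubated with pin-transferred compound for 2 h at 37 °C in the dark, then glutathione donor and nickel acceptor beads were added for 1 h before AlphaScreen reading.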
# gsp antagonist: antagonizes gsp, the McCune-Albright syndrome mutation. gsp-mutant cells, cAMP HTRF, 30 min; control for the full effect not named in the record. Potency, µM (highest dose often 76.9 µM), inactives show at the top dose activity change, negative = inhibition, usual class: inhibitors. 340,000 compounds, 0.4% hits; active = falling curve of any shape with a large fitted effect; inconclusive = falling curve, mostly with a smaller effect; inactive = flat or rising curve; cell line not stated here;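 further: intracellular cAMP measured with PDE inhibitor Ro 20-1724 present during compound exposure; potency means the concentration at half of the fitted maximal effect; on the % scale 0 is the no-effect control and ±100 the full control effect; nearly all actives have a fitted effect of over 65% in size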
#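 HTRF cAMP measurement after 30 min RT detection following 30 min, 37C compound treatment alongside […] (added as 300 uM solution) in G418-selected cells seeded at 2000/well and grown 16–24 h.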
# D2 PAM: potentiates the human D2 dopamine receptor allosterically; AID 624464; potentiation, % (test concentration not listed); P14416; DiscoveRx D2 beta-arrestin cells, luminescence, 90 min; 100% = 57 uM dopamine signal; 360,000 compounds, 0.23% hits; active = potentiation of 50% or more; inconclusive = 30% to 50%; inactive = 30% or less;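 further: compound concentration not given in the record; tested on top of an EC20 dose of dopamine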
# Target sequence (P14416 whole entry, looked up): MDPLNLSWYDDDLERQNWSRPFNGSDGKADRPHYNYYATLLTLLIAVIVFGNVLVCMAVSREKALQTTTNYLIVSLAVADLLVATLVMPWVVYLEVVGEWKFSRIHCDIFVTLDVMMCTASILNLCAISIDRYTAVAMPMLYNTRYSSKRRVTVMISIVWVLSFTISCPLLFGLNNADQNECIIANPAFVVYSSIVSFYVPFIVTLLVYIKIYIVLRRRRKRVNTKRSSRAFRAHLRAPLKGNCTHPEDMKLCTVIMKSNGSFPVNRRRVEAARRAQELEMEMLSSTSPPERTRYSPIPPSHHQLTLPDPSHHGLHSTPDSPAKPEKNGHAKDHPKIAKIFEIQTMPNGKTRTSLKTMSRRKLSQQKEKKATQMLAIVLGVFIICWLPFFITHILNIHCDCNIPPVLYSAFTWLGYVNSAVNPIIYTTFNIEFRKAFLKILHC
#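 D2 cells co-treated with compound plus 50 nM dopamine (EC20) for 90 min at 37 deg C to detect potentiation. Beta-arrestin recruitment was read as enzyme-fragment luminescence after 1 h at ambient temperature. Full response was set by 57 uM dopamine.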
# D2 agonist: agonists of human D2 dopamine receptor (beta-arrestin) | P14416 | DiscoveRx PathHunter D2 beta-arrestin, luminescence, 90 min; 100% = 57 uM dopamine signal | activation, % (test concentration not listed) | 360,000 compounds, 0.084% hits | AID 624465; in the data active = activation above about 40%; inconclusive = about 15% to 40%; inactive = below about 15%; further: compound concentration not given in the record; the text of the record calls up to 30% inactive
#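 Agonist mode: compounds alone added to overnight-plated D2 PathHunter cells for 90 min at 37 C, with 57 uM final dopamine (EC100) defining full response. Beta-arrestin recruitment detected by chemiluminescent reagent, read after 1 h at ambient temperature.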
# gsp ag: agonists of gsp mutant (McCune-Albright syndrome) | gsp mutant cells, cAMP HTRF, 30 min; control for the full effect not named in the record | Potency, µM (doses to about 76.9 µM), for the others: at the top dose activation (cAMP increase), usual class: activators | 340,000 compounds, 0.13% hits | AID 624287; active = well fitted activation curve with a large enough effect; inconclusive = small, poorly fitted or top-dose-only effect, or another doubt; inactive = no such curve, though single readings can be large or run the other way; cell line not stated here;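 further: phosphodiesterase inhibitor Ro 20-1724 added with compounds to block cAMP breakdown; potency means the concentration at half of the fitted maximal effect; nearly all actives have a fitted effect of over 60% in size; about a fifth of the inactives were tested at one dose only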
#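 Cells in DMEM/10% FBS with G418 were pretreated with compounds in DMSO plus […] (300 uM stock) for 30 min at 37C. cAMP was measured by HTRF (cAMP-d2 plus anti-cAMP antibody-K) after 30 min at room temperature.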
# An asterisk follows results filed as active; ? = inconclusive; . = no result given; [ ] = another dose, or the depositor's remark. Hits appear at their usual frequency; about 1.4% have a hit in one of these screens.
mol	Six1-Eya2 blk	CtBP-E1A blk	gsp antagonist	D2 PAM	D2 agonist	gsp ag
CC(=O)Nc1c(F)c(F)c(F)c(F)c1F	5	0	2%	-4	-0.7	-2%
O=C(O)CCc1ccc(S(=O)(=O)Nc2ccc(OCc3ccccc3)cc2)cc1	3	21	-10%	10	-1.4	21%
COc1ccc(Cc2nnc(NC(=O)c3ccco3)s2)cc1	5	5	0%	-2	-2.1	-37%[inhibitor]
CCc1nnc(NCC(=O)N2CCc3ccccc32)s1	-9	-4	6%	12	-1.6	-6%
CCOC(=O)C1CCCN(CC(O)COc2cccc(C)c2)C1 (configuration not stated)	2	2	23%	-36	-2.9	?
CCn1cc(C(=O)O)c(=O)c2cc(OC)ccc21	-1	-1	14%	-7	1.6	-14%
COc1cc2c3c(c1OC)C1(C=CC(=NNC(N)=O)C=C1)CC3N(C(C)=O)CC2 (configuration not stated)	5	.	-15%	-7	3.2	14%
C=CCN1C(=O)CN=C1Nc1ccccc1	9	1	11%	-1	-3.5	12%
Cc1cc(=O)[nH]c2nnc(SCC(=O)N3CC(C)OC(C)C3)n12 (configuration not stated)	-2	6	22%	1	-2.6	-12%[15.4 µM]
COC(=O)c1c(C(=O)OC)c(-c2cccc(C)c2)n2c1CS(=O)(=O)C2	-2	-1	3%	-13	-3.8	10%
COc1cc(/C=C/C(=O)OCC(=O)N2CCCc3ccccc32)ccc1OCC#N	-4	6	-9%	0	9.3	-15%
O=S(=O)(CCN1CCCCC1)Oc1ccc(Cl)cc1Cl	-4	2	1%	-9	-5.0	-20%

# New compounds follow
mol	Six1-Eya2 blk	CtBP-E1A blk	gsp antagonist	D2 PAM	D2 agonist	gsp ag
C[n+]1ccc(CC2C(=[N+]([O-])[O-])C=Nc3ncnn32)cc1 (configuration not stated)	2	.	-3%	-10	-6.1	-2%
O=C(NCCc1nc2ccccc2[nH]1)c1ccc([N+](=O)[O-])cc1	-4	-1	0%	-3	6.1	-6%[15.4 µM]
Cc1ccc(N(CC(=O)NCCSc2ccccn2)S(C)(=O)=O)cc1	-5	2	5%	-9	0.2	-1%[15.4 µM]
Cc1cccc(OCCCC(=O)Nc2ccc(N3CCCCC3)cc2)c1	-6	-4	4%	4	-3.8	-1%
O=C(Nc1ccccc1N1CCCCC1)c1ccc([N+](=O)[O-])o1	?	3	-6%	13	13	1%
CC(=O)N(C1=C(N)C(=O)c2ccccc2C1=O)c1ccccc1	0	.	-7%	2	14	-12%
COc1ccc(N2CCN(S(=O)(=O)c3c[nH]c(=O)[nH]c3=O)CC2)cc1	2	0	2%	-1	-2.7	-3%[15.4 µM]
CC(C)C[C@H](NC(=O)c1nc[nH]c1C(=O)N(C)Cc1ccccc1)C(=O)OC(C)(C)C	-17	.	-12%	-30	-1.7	-2%
O=C(Nc1ccc([N+](=O)[O-])cc1)c1cc2ccccc2nc1Cl	-1	0	?	-4	2.0	-21%[15.4 µM]
CCN1CCC(NC(=O)Nc2ccccc2C(=O)OC)CC1	6	.	0%	-17	-0.7	4%
CCCc1nnc(SCC(=O)N2CCCC(C)C2)n1CCCOC (configuration not stated)	2	-2	7%	-6	-1.3	?
CC(C)(C)C(=O)Nc1ccc(S(=O)(=O)c2ccc(NC(=O)C(C)(C)C)cc2)cc1	2	-2	1%	-2	2.0	-9%

# (list continues)
mol	Six1-Eya2 blk	CtBP-E1A blk	gsp antagonist	D2 PAM	D2 agonist	gsp ag
c1ccc2c(c1)oc1c(N3CCN(Cc4ccc5c(c4)OCO5)CC3)ncnc12	-10	-7	?	-28	-0.6	-23%
Cc1sc2ncnc(N3CCC(C(=O)Nc4ccc(C#N)cc4)CC3)c2c1C	0	-8	-4%	-27	-4.5	?
COc1ccc(CNC(=O)C(C)n2nc(C)c3c(C)n(-c4ccc(C)cc4)nc3c2=O)cc1 (configuration not stated)	0	-2	-11%	1	-9.4	29%
CCCCn1c(N)c(N(CCOC)C(=O)c2cc(=O)[nH]c3ccccc23)c(=O)[nH]c1=O	3	10	1%	-3	-0.4	-32%[inhibitor]
CN1CCN(c2c([N+](=O)[O-])cnc3ccccc23)CC1	10	2	4%	-3	-5.3	1%[15.4 µM]
COc1ccc(C(=O)Cn2cc([N+](=O)[O-])nc2C)cc1	10	15	-1%	0	-2.4	?
CC(=O)N[C@H]1[C@H](OCc2ccccc2F)O[C@H](COC(C)=O)[C@@H](OC(C)=O)[C@@H]1OC(C)=O	6	8	8%	0	1.7	-1%[15.4 µM]
O=C(NC(=S)Nc1ccccc1N1CCOCC1)c1cccc([N+](=O)[O-])c1	-21	-25	-11%	-12	2.3	-27%
O=S(=O)(c1ccccc1)c1nc(-c2ccccc2)oc1N1CCOCC1	1	-12	-8%	-17	-0.8	-22%
CCOc1ccc(NC(=O)NCCCSC2CCCCC2)cc1	18	40	3%	-11	1.5	7%
CC1CCN(CC(=O)Nc2nn(-c3ccccc3)nc2C(N)=O)CC1	-3	6	7%	-11	-2.5	2%[15.4 µM]
CC(CNC(=O)CC[C@H]1O[C@@H](n2ccc(=O)[nH]c2=O)[C@H](O)[C@@H]1O)c1ccccc1 (some centres not stated)	2	6	.	-3	-4.2	.

# Later entries.
mol	Six1-Eya2 blk	CtBP-E1A blk	gsp antagonist	D2 PAM	D2 agonist	gsp ag
Cc1nc2sccn2c(=O)c1S(=O)(=O)Nc1cccc(Cl)c1C	6	2	-25%	-4	-8.6	-19%
CC(=O)N1c2ccccc2C2(C)C(C1(C)C)C2(Cl)Cl (configuration not stated)	10	-2	4%	-4	-4.8	5%[15.4 µM]
COc1ccc(-n2c(Cc3cccn3C)nnc2SCC(=O)Nc2ccc(C)c(Cl)c2)cc1	-14	-11	-26%	-2	0.1	4%
COc1cc(/C=C2/C(=N)N3C=CSC3=NC2=O)ccc1OCCCOc1c(C)cccc1C	-13	?	-24%	-5	0.1	-7%
CC(C)(NC(=O)NC(CO)c1ccccc1)c1cccc(C(C)(C)NC(=O)NC(CO)c2ccccc2)c1 (configuration not stated)	0	0	0%	-7	-3.7	-1%
CC(=O)OCC(=O)Nc1cc(S(=O)(=O)N2CCCCCC2)ccc1Cl	5	.	-2%	-6	0.7	14%
CC(=O)Nc1ccc(-c2csc(N/N=C\c3ccncc3)n2)cc1	-8	-2	-13%	0	-0.6	-8%[15.4 µM]
CN(C(=O)c1ccccc1OCc1ccc(Cl)cc1)c1ccccc1	-4	4	?	3	-5.4	25%
CSc1sc(-c2nnc(SCC(=O)Nc3ccccc3)n2C)c2c1C=CCC2	6	-14	-21%	-19	2.3	-4%[15.4 µM]
COc1cccc(C2C(C(C)=O)=C(C)Nc3ncnn32)c1 (configuration not stated)	9	-7	6%	0	-0.4	13%[15.4 µM]
O=[N+]([O-])c1ccccc1S(=O)(=O)Oc1ccc(/C=N/n2cnnc2)cc1	0	7	7%	2	0.3	-15%[15.4 µM]
COc1cccc(C(NC(C)=O)c2nc(-c3csc4ccccc34)cs2)c1 (configuration not stated)	-11	-7	.	-5	2.0	.

# Other structures follow.
mol	Six1-Eya2 blk	CtBP-E1A blk	gsp antagonist	D2 PAM	D2 agonist	gsp ag
CC(SCc1ccc(C(=O)O)o1)c1ccc(C(=O)O)o1 (configuration not stated)	0	-2	11%	-6	-2.4	?
CN1CCCN(C(=O)CNC(=O)c2ccccc2F)CC1	29	12	4%	-3	-0.7	-54%
Cc1ccc(C)n1-c1ccc(N2CCOCC2)nc1	-3	-3	-14%	-3	0.5	-27%
COc1ccccc1N1CCN(C2CCCN(C(=O)c3cccc(-c4ccco4)c3)C2)CC1 (configuration not stated)	-15	-15	-21%	-39	-1.9	-65%[inhibitor]
COc1ccccc1CNc1ccc(C(=O)O)cc1	0	-2	-15%	-1	-3.0	0%
O=C(NC12CC3CC(CC(C3)C1)C2)C1=COCCO1	-2	1	7%	-19	-4.4	-23%
Cc1c(Br)c(C(F)(F)F)nn1CC(=O)N1CCCC1	5	8	7%	-9	-1.1	2%
CN1CCN(C(=O)c2cn(C)c3ccc(S(=O)(=O)N(C)C4CCCCC4)cc3c2=O)CC1	10	-14	2%	-2	-3.4	-1%
CCN1CCC(NC(=O)Nc2ccc(F)cc2)CC1	-4	2	1%	-3	0.6	-41%[inhibitor]
CCNc1nc(SC(C)C(=O)Nc2ccccc2)nc(N2CCOCC2)n1 (configuration not stated)	1	0	3%	-13	-0.1	16%
COc1ccc(NC(=O)CN(C)C(=O)c2cccc(S(=O)(=O)N3CCN(Cc4ccccc4)CC3)c2)cc1	-7	-13	-17%	-11	-8.9	?
C[N+](C)(CCOc1ccccc1)Cc1ccccc1 (tested in a mixture with another compound)	0	11	-2%	74*	?	?

# Next part
mol	Six1-Eya2 blk	CtBP-E1A blk	gsp antagonist	D2 PAM	D2 agonist	gsp ag
CCOc1ccc2nc(SCC(=O)NC(=O)NCc3ccco3)[nH]c2c1	-17	-8	5%	-16	-5.7	-9%
Cc1ccccc1Nc1nc(N)nc(CSCC(=O)Nc2cccc(Br)c2)n1	-12	-18	-5%	-7	0.0	0%
O=C(CN1CCCC1)NC(=O)NC1CCCC1	2	0	.	14	1.4	-4%[15.4 µM]
O=C(O)COc1ccc(/C=C/C(=O)c2ccc(C3CCCCC3)cc2)cc1	-3	-7	-16%	-4	-5.3	41%
Cc1ccccc1-n1nnnc1SCC(=O)NNC(=O)c1ccc(NC(=O)CC#N)cc1	-2	-8	?	-4	-3.5	-20%
Cc1c(NC(=O)c2cc(-c3cccs3)on2)c(=O)n(-c2ccccc2)n1C	-2	-2	4%	-15	-0.6	23%
Cc1cccc2cc(-c3ccccc3)c(-c3ccccc3)c[n+]12	1	6	-13%	-8	-3.5	8%
Cc1cc(C)cc(NC(=O)c2cc(C)n(Cc3cccs3)c2C)c1	4	-2	-6%	-2	-2.0	3%
O=S(=O)(Nc1cccc(S(=O)(=O)N2CCCC2)c1)c1ccc(Cl)cc1	8	6	-9%	3	6.2	23%
COc1ccc(CNCC(=O)Nc2cccc(S(N)(=O)=O)c2)cc1	5	5	3%	-11	1.3	10%[15.4 µM]
CCCn1cnc2cc(NC(=O)c3ccco3)ccc21	-2	1	6%	-13	-0.6	1%
CCc1ccc(CNC(=O)c2ccc(OC3CCN(C(=O)COC)CC3)cc2)nc1	0	-5	1%	-5	-0.4	-4%
COC(=O)C1=C(C(=O)OC)SC(=C2C(=S)C(C)(C)N(C(=O)C3CC3)c3ccccc32)S1	-77*	-80*	-12%	-7	-1.6	-39%[inhibitor]
COc1ccc(OC)c(N(CC(=O)NC2CC3CCC2C3)S(=O)(=O)c2ccccc2)c1 (configuration not stated)	-2	4	?	-2	0.8	-7%[15.4 µM]
COC(=O)c1ccc2nc(C)c(C)nc2c1	-1	2	5%	-5	-2.0	9%

# Taken from the results shown (2 entries):
mol	Six1-Eya2 blk	CtBP-E1A blk	gsp antagonist	D2 PAM	D2 agonist	gsp ag
CCOc1ccc2nc(SCC(=O)NC(=O)NCc3ccco3)[nH]c2c1	-17	-8	5%	-16	-5.7	-9%
Cc1ccccc1Nc1nc(N)nc(CSCC(=O)Nc2cccc(Br)c2)n1	-12	-18	-5%	-7	0.0	0%
